Screening results as filed in PubChem.
HNF4A DNA FP – change in binding of human HNF4 alpha to DNA; P41235; HNF4a-FITC DNA binding, fluorescence polarization, 1 h; activity change, % at 10 µM; hit rate 0.3% among 360,000; in the data active = activity change above about 30%, passing the limit was not always enough;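 note: controls were the assay level and a saturating level of protein; the project sought stronger binding though the title names inhibitors; some compounds called inactive have numbers as strong as hits; positive values seem to mean higher polarization but the record does not say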
Target sequence (P41235 whole entry, looked up): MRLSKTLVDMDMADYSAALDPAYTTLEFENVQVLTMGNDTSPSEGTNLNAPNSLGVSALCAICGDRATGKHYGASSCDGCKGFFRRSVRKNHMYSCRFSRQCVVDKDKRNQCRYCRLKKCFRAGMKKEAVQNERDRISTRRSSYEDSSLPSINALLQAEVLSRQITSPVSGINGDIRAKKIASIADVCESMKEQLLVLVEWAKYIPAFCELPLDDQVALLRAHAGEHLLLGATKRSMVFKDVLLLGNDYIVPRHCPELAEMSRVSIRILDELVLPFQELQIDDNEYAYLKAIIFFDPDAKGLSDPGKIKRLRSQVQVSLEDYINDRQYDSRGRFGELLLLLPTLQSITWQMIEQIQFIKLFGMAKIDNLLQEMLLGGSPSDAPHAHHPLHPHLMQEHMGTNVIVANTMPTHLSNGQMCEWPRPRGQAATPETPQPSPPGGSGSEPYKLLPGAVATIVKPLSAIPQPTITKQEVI
ALR inh – human ALR oxidase inhibition via reduced H2O2. purified ALR, DTT oxidation, H2O2 HRP-luminol luminescence. P55789. inhibition, % (concentration not given with the values). hit rate 3.8% among 290,000;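 active = mean and each replicate at 75% or more; inconclusive = only one of the two met; inactive = neither met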;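 note: stock transfer was 7.5 nL into about 7.5 µL; 0% = neutral wells and 100% = wells with inactivated enzyme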
Vif TR-FRET – inhibitors of Vif binding to APOBEC3G peptide, primary screen, biochemical, TR-FRET, GST-Vif 1-94, biotin-A3G peptide, dose response retest (AID 1117319). TR-FRET GST-Vif / biotin-A3G peptide binding; higher % means a stronger effect; test concentration not given here; strong numbers were not always called active. hit rate 0.57% among 260,000. inhibition, %; hits with a dose series show IC50 in µM;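 active = above the screen mean plus three standard deviations and confirmed in dose response; inconclusive = results disagree or hit not tested in dose response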;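 note: Vif residues 1-94 fused to GST binding biotinylated APOBEC3G peptide 110-148; 0% = full assay without inhibitor and 100% = GST in place of GST-Vif; retest series ran down from 100 µM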
Ecoli growth – E. coli growth inhibition; hit rate 0.21% among 330,000; OD600 absorbance (concentration not given with the values); Escherichia coli growth, OD600, 23 h; hits give low values;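 active = OD600 absorbance below the run mean of sample wells minus 3.6 SD, in any replicate, cut at about 0.56 in these data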;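 note: stock transfer was 300 nL into about 60 µL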
Ecoli rRNA inh – selective bacterial rRNA inhibition in E. coli | GFP signal change (wild-type ribosome), % (concentration not given with the values) | hit rate 1.6% among 350,000 | E. coli WT GFP vs humanized-ribosome RFP mutants, fluorescence, 24 h; hits give low values; DMSO median 0, no signal -100;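 active = significant combined selectivity score with lowered wild-type GFP, culture density cut under 30%, mutant RFP and density less affected; inactive = any of these conditions unmet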; note: one replicate is shown; some compounds called inactive have numbers as strong as hits
FGF22 binding – binders of recombinant human FGF22 by thermal shift. Q9HCT0. SYPRO orange fluorescence; percent of sucrose octasulfate shift, DMSO zero. calls only at 9.99 µM. hit rate 1.5% among 340,000;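 active = melting point raised past a set limit in the mean and every replicate; inconclusive = no clear call; three in four hits are not shown here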
AF4-AF9 inh – inhibitors of human MLL-AF4/AF9 interaction; hit rate 0.47% among 350,000; P42568; AlphaScreen, biotin-AF4 peptide binding to FLAG-AF9; inhibition, % at 10 µM;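 active = every replicate reaching a set inhibition limit, whatever the replicate mean, cut at about 25% in these data; inconclusive = mean inhibition reaches that limit but some replicates miss it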;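 note: 0% = plate neutral control median and 100% = total signal loss; the record names both 10 and 1 µM as test concentration; the first replicate is given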
Target sequence (P42568 whole entry, looked up): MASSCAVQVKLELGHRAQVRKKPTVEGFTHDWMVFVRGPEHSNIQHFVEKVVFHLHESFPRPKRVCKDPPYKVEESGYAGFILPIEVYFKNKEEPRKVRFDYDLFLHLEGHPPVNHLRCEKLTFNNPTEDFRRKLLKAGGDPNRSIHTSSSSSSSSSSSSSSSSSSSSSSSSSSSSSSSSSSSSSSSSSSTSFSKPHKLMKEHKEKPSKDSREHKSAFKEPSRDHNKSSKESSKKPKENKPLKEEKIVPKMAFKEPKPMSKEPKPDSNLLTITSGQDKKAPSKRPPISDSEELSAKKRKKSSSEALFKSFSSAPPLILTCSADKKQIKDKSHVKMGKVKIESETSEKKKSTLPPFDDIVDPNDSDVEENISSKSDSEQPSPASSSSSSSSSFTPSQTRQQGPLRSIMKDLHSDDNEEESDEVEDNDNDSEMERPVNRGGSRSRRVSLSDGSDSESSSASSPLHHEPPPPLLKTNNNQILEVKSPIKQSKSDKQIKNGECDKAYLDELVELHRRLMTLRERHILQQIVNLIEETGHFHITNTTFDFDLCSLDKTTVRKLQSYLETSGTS
Ecoli rRNA inh OD600 – second read-out of Ecoli rRNA inh, no call of its own (marks repeat the call); OD600 change, %; measured here: OD600 growth;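 optical density of the mix in the first replicate; 0 = DMSO median and -100 = no signal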
Ecoli rRNA inh RFP – second read-out of Ecoli rRNA inh, no call of its own (marks repeat the call); RFP signal change, %; measured here: RFP humanized mutant strains;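 first replicate; 0 = DMSO median and -100 = no signal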
* marks the source's active call; other numbers are inactive results; i = inactive; ? = inconclusive; . = no result given; & = joins results of further samples. Some of the compounds tested; rates above refer to the full screens.

SMILES	HNF4A DNA FP	ALR inh	Vif TR-FRET	Ecoli growth	Ecoli rRNA inh	Ecoli rRNA inh OD600	Ecoli rRNA inh RFP	FGF22 binding	AF4-AF9 inh
CN1C(=O)c2cc(NC(=O)c3ccc(C(F)(F)F)cc3)ccc2OC[C@H]2O[C@H](CC(=O)O)CC[C@@H]21	.	.	.	.	-1	-6	-0.7	i	-1.3
CN(C)c1cccc(C(=O)Nc2ccc(N3CCOCC3)cc2)c1	-2.0	91*	16%	0.71	-2	1	-2.0	.	.
CCOc1ccc2[nH]c(=O)c(CN(CCO)Cc3nnnn3CCc3ccccc3)cc2c1	1.6	-17	-1%	0.71	.	.	.	.	.
CCCCN1C(=O)C(CC(=O)NC2CC2)CC(C(=O)N2CCOCC2)=C1C (centres undefined)	2.4	.	-4%	.	7	15	-2.3	i	-2.7
C=CCNC(=O)c1cc(-c2ccc(Br)cc2)on1	2.5	2	17%	0.66	.	.	.	.	.
CC(NC(=O)CSc1n[nH]c(=O)n1C1CC1)C12CC3CC(CC(C3)C1)C2 (centres undefined)	-5.2	.	2%	0.73	.	.	.	.	.
CC(C)=CC(=O)O[C@@H]1Cc2c(ccc3ccc(=O)oc23)OC1(C)C	5.3	-5	.	0.71	-8	-12	-2.6	i	0.7
CC1=C(C(=O)OC(C)C)C(c2ccccc2)NC(=O)N1C (centres undefined)	1.9	1	2%	0.68	-7	-2	-7.8	i	3.2
Cc1noc(C)c1NC(=O)N(C)C[C@@H]1Oc2ccc(NS(=O)(=O)c3ccc(Cl)cc3)cc2CC(=O)N([C@H](C)CO)C[C@@H]1C	.	.	.	.	3	10	0.9	i	-4.0
CC(=O)NC(Cc1c[nH]c2ccccc12)C(=O)OCC(=O)N1CCN(S(=O)(=O)c2ccc(Cl)cc2)CC1 (centres undefined)	5.5	.	.	0.7	-3	-6	-0.1	i	-20
COc1cc(OC)c(NS(=O)(=O)c2cc(C(=O)NCCCN3CCOCC3)ccc2C)cc1Cl	0.8	.	9%	.	8	3	2.6	i	-2.5
O=C(CCN1CCCCC1)N[C@@H]1CC[C@H](CCNS(=O)(=O)c2ccc(Cl)cc2)O[C@H]1CO	.	.	.	.	1	2	0.2	i	3.8
C#CC(c1ccccc1)(c1ccccc1)n1ccnc1	2.4	.	1%	.	-60	-82	-19	i	1.5
C[C@@H]1CN([C@@H](C)CO)C(=O)Cc2cc(NC(=O)CCCCCC(=O)Nc3ccccc3N)ccc2O[C@@H]1CN(C)C(=O)Nc1ccc(F)cc1	.	.	.	.	9	16	-0.4	i	-3.5
CC(=O)Cc1nsc(NC(=O)c2ccc(COc3ccccc3)o2)n1	9.6	98*	8%	0.6	.	.	.	.	.
O=[N+]([O-])c1ccc(-c2cnc(SCc3ccccc3Cl)[nH]2)cc1	-0.8	?	1%	0.66	.	.	.	.	.
Cc1ccc(Nc2ccc(C(N)=O)cc2[N+](=O)[O-])cc1C	4.7	-1	8%	0.67	15	5	0.1	.	-1.0
CC(C)NC(=O)CN1CCN(c2ncccn2)CC1	-0.4	-2	-2%	0.7	.	.	.	.	.
C[C@@H]1CN([C@H](C)CO)C(=O)c2cc(N(C)C)ccc2O[C@@H](C)CCCCO[C@H]1CN(C)C(=O)C1CCCCC1	.	.	.	.	-5	-1	-1.0	i	5.4
Cn1cnnc1SCC(=O)N1CCN(C(=O)c2ccco2)CC1	-0.6	3	?	0.73	8	2	-1.7	i	1.2
CCOC(=O)C(C)Sc1nnc(CNC(=O)c2ccc(OC)cc2)n1C1CCCCC1 (centres undefined)	-0.5	0	1%	0.69	-24	-27	0.1	.	.
Cc1cccc(NC(=O)CN2C(=O)C(C)Oc3ccccc32)n1 (centres undefined)	3.4	-9	.	0.61	4	-2	-4.6	i	-0.6
C[C@H]1CN([C@@H](C)CO)C(=O)c2cc(NC(=O)Nc3ccc4c(c3)OCO4)ccc2O[C@@H]1CN(C)S(=O)(=O)c1ccccc1	.	.	.	.	-7	-11	1.4	i	9.6
CCC1=C(OC(=O)N(CC)CC)N2C(=O)OC(=NCC(=O)OC)[C@]2(Cc2ccccc2)[C@H]2C1=CC[C@H]1C(=O)N(C)C(=O)[C@H]12	-1.1	-40	.	.	3	10	-4.7	i	.
CO[C@@H]1CN(C)C(=O)c2ccc(NC(=O)Nc3cc(F)ccc3F)cc2OC[C@@H](C)NC[C@H]1C	.	.	.	.	0	2	2.3	i	1.9
SMILES	HNF4A DNA FP	ALR inh	Vif TR-FRET	Ecoli growth	Ecoli rRNA inh	Ecoli rRNA inh OD600	Ecoli rRNA inh RFP	FGF22 binding	AF4-AF9 inh
Cc1ccccc1CSCC(=O)c1c(N)n(C)c(=O)n(C)c1=O	3.8	-11	-6%	0.69	15	6	1.3	i	2.8
CO[C@@H]1CN(C)C(=O)c2cc(NC(=O)c3ccc(F)cc3)ccc2OC[C@H](C)N(C)C[C@H]1C	.	.	.	.	0	-1	-1.8	i	-0.4
C[C@@H]1CN([C@H](C)CO)C(=O)c2cc(C#CCc3ccccc3)cnc2O[C@H]1CN(C)Cc1ccccn1	.	.	.	.	-5	3	1.4	i	-0.6
COc1cc(NC(=O)Cn2nc(C(F)(F)F)c(Br)c2C)cc([N+](=O)[O-])c1	3.5	44	9%	0.68	-15*	-0.3*	3.9*	i	0.0
CN1OC[C@@H]2CN3C(=O)N(c4ccccc4)c4ccccc4[C@@H]3C[C@@H]21	4.0	.	.	.	4	5	1.8	i	-0.3
O=C1N(Cc2cccc(Cl)c2)C[C@@H]2C[C@@H](c3c[nH]c4ccccc34)N3CCC[C@@]123	85*	-25	0%	0.68	-18	-11	37	i	4.4
O=C(C/C(=N\NC(=O)c1ccccc1Br)C(F)(F)F)c1cccs1	0.5	7	.	.	-14	-21	6.5	i	2.6
Cc1c(C(C)(C)C)sc(=NC(=O)c2ccccc2O)n1C	-2.5	.	-5%	0.68	2	8	-0.7	i	-0.3
CCc1nnc(NC(=O)c2ccc3c(c2)C(=O)N(CC)C3=O)s1	1.8	-8	4%	0.64	.	.	.	.	.
O=C(NCCCn1ccnc1)c1ccc(N2CCCCC2)c([N+](=O)[O-])c1	-4.0	-3	11%	0.7	-20	-25	-8.5	i	4.1
C[C@H]1CN([C@@H](C)CO)S(=O)(=O)c2ccc(C#CCN(C)C)cc2O[C@H]1CN(C)CC1CC1	.	.	.	.	-4	-3	-1.7	i	6.0
CO[C@H]1CN(C)C(=O)c2cc(NC(=O)c3ccccc3)ccc2OC[C@@H](C)N(C(=O)C2CC2)C[C@H]1C	.	.	.	.	-3	-3	-0.5	i	3.6
CC(=NNC(=O)c1ccncc1)c1cc(Cl)ccc1Cl	2.2	.	3%	0.69	6	4	0.8	i	2.4
O=C(Nc1ccc(C(=O)N2CCOCC2)cc1)c1cc(-c2cccnc2)nc2ccc(Cl)cc12	4.7	.	8%	0.7	10	11	2.0	.	5.7
NC(=O)c1c(NC(=O)CSc2nnc(-c3ccco3)n2N)sc2c1CCCC2	5.7	10	4%&16%	0.81	.	.	.	.	.
CCC(=O)N(C)C[C@H]1Oc2cc(Br)ccc2S(=O)(=O)N([C@@H](C)CO)C[C@H]1C	-2.1	.	8%	.	7&1	2&-1	-5.3&0.1	i	-0.9&-2.4&-2.2
CCCC(=O)NC1C2CC3CC(C2)CC1C3 (centres undefined)	-1.5	2	0%	0.67	.	.	.	.	.
CCCC(=O)Nc1nnc(CCOC)s1	1.4	-4	0%	0.68	2	-2	5.5	i	-12
COc1cccc(-c2ccc3c(c2)[C@H]2[C@H](CCN2S(=O)(=O)c2cccc(OC)c2)[C@@H](CO)N3)c1	.	.	.	.	-1	9	0.6	i	0.7
Cc1nc(Cl)sc1C(=O)Nc1cc(F)cc(F)c1	-0.3	-7	.	0.65	16	10	1.6	i	-1.9
O=C(Oc1c(Cl)cc(Cl)c2cccnc12)c1ccco1	1.1	-6	11%	0.056*	.	.	.	.	.
Cc1ccc(NC(=S)NNC(C)(C)C)cc1	0.2	22	15%	0.67	13	6	1.0	i	0.3
CCCC(=O)N(Cc1cccnc1)c1nc2c(OC)ccc(Cl)c2s1	2.2	-6	.	0.7	0	0	-0.9	i	-0.4
COc1ccc2c(c1)C(=O)C1NC(=O)NC(=O)C1(Br)N2 (centres undefined)	3.2	.	5%	0.68	10	6	-0.5	i	-4.4
Cc1cccc(C(O)c2ncc(-c3ccccc3Cl)[nH]2)c1C (centres undefined)	1.1	.	.	.	11	17	4.1	i	-1.4
SMILES	HNF4A DNA FP	ALR inh	Vif TR-FRET	Ecoli growth	Ecoli rRNA inh	Ecoli rRNA inh OD600	Ecoli rRNA inh RFP	FGF22 binding	AF4-AF9 inh
CC(C)c1cc(C(=O)N2CCCC(Nc3ccc(F)cc3)C2)n[nH]1 (centres undefined)	2.4	99*	23%	0.7	-3	5	0.9	i	-1.0
Cc1ccc(S(=O)(=O)N2C[C@@H]3[C@H]4CC[C@H](C4)[C@@H]3[C@@H](C)[C@H]2c2ccco2)cc1	2.9	.	5%	0.71	-3	-7	-3.7	i	1.7
CCOC(=O)c1cn2nc(Oc3cccc(C(F)(F)F)c3)ccc2n1	0.6	-1	-1%	0.66	-11	-10	2.2	i	-1.1
Cc1ccc(S(=O)(=O)Nc2cccc3c2O[C@H](CN(C)Cc2ccc(C(=O)O)cc2)[C@@H](C)CN([C@@H](C)CO)C3=O)cc1	.	.	.	.	4	6	-2.1	i	0.8
COc1cc(CNCCNC(=O)c2cccs2)cc(OC)c1OC	0.3	-32	.	0.64	10	8	-5.0	i	0.6
O=C(Nc1ccc2oc(-c3ccc(Cl)c(Cl)c3)nc2c1)c1ncn[nH]1	-13	-3	6%	0.74	.	.	.	.	.
COC(=O)c1ccc(C2C(C(=O)Nc3ccccc3C)=C(C)Nc3ncnn32)cc1 (centres undefined)	1.5	-10	1%	0.7	.	.	.	.	.
O=C1OC(Nc2ncccn2)c2ccccc21 (centres undefined)	-1.5	-2	?	0.74	.	.	.	.	.
COc1ccc(-c2cc3nc(C)c(CCC(=O)N4CCN(c5ccccn5)CC4)c(C)n3n2)c(OC)c1	1.4	.	-8%	0.7	-1	3	-2.7	i	-0.1
CCN(CC)C(CNC(=O)CSc1nnnn1-c1c(C)cccc1C)c1ccco1 (centres undefined)	4.0	.	-1%	0.67	0	-2	2.6	i	-5.1
CC1CC(C)CN(CCCNC(=O)CN2C(=O)CSc3ccc(S(=O)(=O)N4CCCCC4)cc32)C1 (centres undefined)	1.0	-31	.	0.65	-5	1	-1.6	i	-0.5
Cc1ccc(S(=O)(=O)Nc2ccc3c(c2)CC(=O)N([C@H](C)CO)C[C@@H](C)[C@@H](CN(C)C(=O)NC2CCCCC2)O3)cc1	.	.	.	.	0	5	-0.4	i	-1.7
CCOC(=O)c1sc2nc(C)nc(SCC(N)=O)c2c1C	16	-20	-12%	0.68	.	.	.	.	.
COc1c(Cl)cc(C(=O)Nc2cccnc2)cc1Cl	-0.6	.	.	.	-8	-17	-2.4	i	-6.1
CCCC#Cc1ccc2c(c1)O[C@@H](CN(C)CC1CCOCC1)[C@@H](C)CN([C@H](C)CO)S2(=O)=O	.	.	.	.	0	2	-1.4	i	4.0
C[C@@H]1CN([C@H](C)CO)C(=O)c2cc(NC(=O)Cc3ccccc3)ccc2O[C@@H](C)CCCCO[C@@H]1CN(C)Cc1ccncc1	.	.	.	.	1	0	2.2	i	2.3
